Screens: PubChem BioAssay, several laboratories
HSV replic up: increases HSV replication in cells; HSV replication augmentation in cells, fold increase; maximum fold increase; AID 1956; 220,000 tested, 0.005% active;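 active = peak rise of 1.5-fold or more in the series; inconclusive = self-fluorescent or not available for retest; tested in PC3 cells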;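 also: first round at 10 µM; read as green reporter fluorescence; hits show the peak of a series up to 25 µM; 1 = signal of infected wells without compound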
INS promoter inh: TRM-6 insulin promoter activity inhibition | TRM-6 cells (human fetal islet line), insulin promoter-eGFP reporter, imaging; reporter expression induced with tamoxifen | AID 1273 | inhibition, % at 2 µM | 130,000 tested, 0.9% active;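 active = inhibition above the mean plus 3 SD, with well images judged a real hit on visual review, cut at about 60% in these data, passing the limit was not always enough; inconclusive = inhibition over the cutoff but images rejected on review; inactive = inhibition not above the cutoff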
GALR2 ag: activates the human galanin receptor 2. O43603. AID 803. GALR2-expressing cells, agonist activation read-out. activation, %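 (tested at 5 µM)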. 140,000 tested, 0.48% active;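 active = above mean plus 3 SD of all compounds, about 5% in these data, not always enough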;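 also: 0% = vehicle buffer wells and 100% = reference agonist at full effect; tested in CHO reporter cells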
PKD1 kinase inh: PKD1 (human) kinase inhibition; PKD1 kinase fluorescence polarization assay; Q15139; inhibition, %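 (about 10 µM by stock and volumes)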; AID 797; 200,000 tested, 0.056% active;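 active = inhibition of 50% or more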;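 also: controls were vehicle for no effect and a reference inhibitor for full effect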
Target sequence (Q15139 whole entry, looked up): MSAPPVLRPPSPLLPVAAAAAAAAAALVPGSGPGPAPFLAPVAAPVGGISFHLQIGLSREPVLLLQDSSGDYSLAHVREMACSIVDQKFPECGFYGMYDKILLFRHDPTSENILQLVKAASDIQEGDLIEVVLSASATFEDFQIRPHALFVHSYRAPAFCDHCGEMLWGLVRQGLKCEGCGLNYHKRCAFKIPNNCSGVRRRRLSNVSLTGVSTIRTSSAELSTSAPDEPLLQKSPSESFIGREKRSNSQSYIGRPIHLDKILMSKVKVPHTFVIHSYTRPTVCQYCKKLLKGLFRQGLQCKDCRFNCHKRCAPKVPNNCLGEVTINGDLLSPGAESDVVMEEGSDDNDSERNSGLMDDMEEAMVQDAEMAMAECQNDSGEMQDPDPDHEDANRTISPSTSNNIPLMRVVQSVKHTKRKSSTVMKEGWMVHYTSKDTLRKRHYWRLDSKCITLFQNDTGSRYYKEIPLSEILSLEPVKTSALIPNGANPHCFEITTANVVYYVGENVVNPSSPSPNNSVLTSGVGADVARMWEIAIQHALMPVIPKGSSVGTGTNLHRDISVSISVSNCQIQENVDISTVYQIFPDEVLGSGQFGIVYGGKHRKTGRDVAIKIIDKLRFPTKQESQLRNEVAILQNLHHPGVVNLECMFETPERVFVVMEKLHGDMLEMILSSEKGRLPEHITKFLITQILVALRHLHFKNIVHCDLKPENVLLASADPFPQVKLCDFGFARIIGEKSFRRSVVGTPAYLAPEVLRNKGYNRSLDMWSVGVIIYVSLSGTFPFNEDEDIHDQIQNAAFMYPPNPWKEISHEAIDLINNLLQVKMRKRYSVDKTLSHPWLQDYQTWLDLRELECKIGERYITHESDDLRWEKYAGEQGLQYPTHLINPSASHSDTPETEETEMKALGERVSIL
RGS16-Gao HTS: RGS16-Galphao interaction regulator (human). O15492+P09471. bead-based flow cytometry RGS16-Galphao binding, fluorescence; actives lie on both sides. binding response (% of control), % at 10 µM. 220,000 tested, 0.38% active. AID 1441;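 active = below 25% or above 175%, edge rows of some plates excepted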;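 also: Galphao activated by GDP with aluminum fluoride before binding; 100% = wells without compound and 0% = beads without RGS; some results beyond the cut were filed as inactive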
INS promoter inh cell count: recorded beside INS promoter inh, whose call it bears; normalized cell count, %; measured here: cell count, toxicity; reference of the scale not given here;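 cells exposed to compound for 48 h; stained nuclei by imaging scaled within each plate; lower means fewer cells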
HSV replic up primary fold: further read-out of HSV replic up, marked with its call; fold increase; compound at 10 µM; measured here: primary screen fold increase 10 uM; tested in PC3 cells;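 GFP signal in the first replicate; 1 = infected wells without compound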
An asterisk follows results filed as active; i = inactive; ? = inconclusive; · = not tested or not shown.

structure,HSV replic up,HSV replic up primary fold,INS promoter inh,INS promoter inh cell count,GALR2 ag,PKD1 kinase inh,RGS16-Gao HTS
O=C(N/N=C/c1ccc2c(c1)OCO2)c1ccc(NS(=O)(=O)c2cccs2)cc1,i,1,·,·,·,1.2,103.3
CSc1nnc(CSCc2ccc(Cl)cc2Cl)n1-c1ccccc1,i,0.98,6.7,157.0,-0.3,13.6,100.9
CCN1CCC(NC(=O)Nc2ccccc2C(=O)OC)CC1,i,1.06,·,·,·,-8.5,99.5
Cc1cc(C)n(-c2ncc(C#N)cn2)n1,i,0.96,5.0,120.8,·,-0.8,94.9
Cn1c(SCC2CCCO2)nnc1-c1ccncc1 (configuration not stated),i,1.15,·,·,-1.1,-6.7,108.3
CCc1cc2cccc(C)c2nc1SCC(=O)c1ccc(NC(C)=O)cc1,i,1.02,17.9,89.5,-0.1,-16.8,104.3
COc1ccc(-c2nnc(SCC(=O)NC(C)c3ccccc3)o2)cc1OC (configuration not stated),i,1.01,·,·,-0.8,3.0,105.9
O=C(c1ccccc1C(=O)N1CCN(c2ccccc2)CC1)N1CCN(c2ccccc2)CC1,i,0.91,-60.0,86.6,-4.0,0.7,102.9
CS(=O)(=O)c1ccc(C(=O)NCc2ccc(F)cc2)cc1,i,1.11,·,·,·,-1.4,100.5
Cc1ccc(S(=O)(=O)N2CCCC(CCC(=O)NCc3ccccc3F)C2)s1 (configuration not stated),i,1.04,·,·,·,-3.3,114.5
COc1ccc(OC)c(-n2c(SCC(=O)NCc3ccco3)nnc2-c2c[nH]c3ccccc23)c1,i,0.7,·,·,0.9,-11.4,67.5
O=[N+]([O-])c1ccc(N/N=C2\CC3CC=CC23)c([N+](=O)[O-])c1 (configuration not stated),i,0.99,·,·,·,-3.1,98.7
CC(C)c1ccccc1NC(=S)NCc1nc2ccccc2[nH]1,i,1.01,-61.9,67.2,·,3.8,101.1
COc1cccc2cc(C(=O)N3CCc4ccccc4C3)c(=O)oc12,i,0.89,-84.4,63.9,-1.2,-5.2,96.0
COc1cc(S(=O)(=O)NCCc2ccc3c(c2)OCO3)ccc1-n1cnnn1,i,1.18,16.1,89.5,-3.4,3.1,82.4
O=C(Cc1ccc(Br)c2ccccc12)N/N=C/c1ccccn1,i,1.02,25.0,69.9,·,3.2,95.1
Cc1cc(SCC(=O)OCC(=O)NCC2CCCO2)c(C)cc1Br (configuration not stated),i,0.98,-25.0,89.6,·,7.2,103.1
O=c1c2ccccc2nc2c3ccccc3c(Cl)nn12,i,1.05,42.9,80.7,·,-2.9,105.9
O=C(CCN1CCOCC1)c1ccc(Br)cc1,i,0.78,·,·,·,0.5,102.4
O=C(CSc1ncnc2c1cnn2-c1ccc(Cl)cc1)NCc1ccc2c(c1)OCO2,i,0.94,11.1,122.3,-0.4,4.8,78.0
O=[N+]([O-])c1ccccc1CNC(Cc1ccccc1)c1ccccc1 (configuration not stated),i,0.7,29.0,89.0,0.0,-2.5,94.1
Cn1c(=O)c2nc3ccccc3nc2n(C)c1=O,i,0.96,·,·,·,0.9,99.5
CN1CCN(NC(=O)c2cccc(F)c2)CC1,i,1.02,-43.3,130.3,-2.8,-2.8,99.4
COc1cccc(C2(O)CCN(CC(=O)NCC3CC3)CC2)c1,i,1.03,45.0,93.8,·,1.1,103.7
CC(C)c1nnc(NC(=O)CCC(=O)NCc2ccco2)s1,i,0.96,·,·,-0.8,-1.6,104.2
COCCOc1ccc(C(F)(F)F)cc1N,i,1.08,·,·,·,-1.1,108.2
COc1cc(/C=N/NC(=O)c2sc(N)c(C#N)c2C)cc(Br)c1O,·,·,·,·,-2.3,3.3,95.3
Cc1cc(C)cc(OCC(=O)O/N=C(\N)c2cccnc2)c1,i,1.02,·,·,·,·,101.4
c1cnc(SCCOc2ccc3c(c2)CCC3)nc1,i,0.99,·,·,-1.4,8.0,103.1
CC(Sc1ncnc2ccccc12)C(=O)Nc1ccc2c(c1)OCCO2 (configuration not stated),i,1.01,·,·,-1.5,8.9,103.4
COc1cccc2c(=O)n(CC(=O)NCCc3ccccc3)ccc12,i,0.86,·,·,·,·,97.8
O=C(c1cc2ccccc2oc1=O)N1CCN(C(=O)C2CCCO2)CC1 (configuration not stated),i,0.83,54.3,137.7,-0.2,-1.1,98.4
O=C(Nc1ccc(N2CCOCC2)c(F)c1)c1ccncc1,i,0.92,-21.6,67.7,-1.8,-12.3,94.8
CC1CN(C(=O)COC(=O)[C@@H]2CC(O)CN2S(=O)(=O)c2ccc3c(c2)OCCO3)CC(C)O1 (some centres not stated),i,0.98,43.3,100.0,-1.1,5.0,100.3
COc1ccc(C(=O)NNC(=S)NC(=O)C(C)(C)C)cc1,i,0.94,·,·,·,-5.5,101.8
Cc1nn(C)c(Cl)c1CN1CCCC(CO)(Cc2ccccc2)C1 (configuration not stated),i,0.94,·,·,·,-0.1,101.6
O=c1[nH]c2ccsc2c(=O)n1-c1ccc(F)cc1,i,0.86,·,·,-2.5,1.3,102.8
COc1ccc(CCNC(=O)c2cc(-c3cc(C)ccc3O)n[nH]2)cc1OC,i,1,7.1,86.7,-0.6,-7.2,105.1
O=C1c2ccccc2C(Nc2ccc(S(=O)(=O)N3CCOCC3)cc2)N1Cc1ccco1 (configuration not stated),i,1.04,·,·,-0.7,1.4,100.8
COc1ccc(Nc2nc3nonc3nc2N2CCCCC2)cc1,i,0.97,·,·,·,·,109.5
COc1cc2nc(Cl)nc(NCCO)c2cc1OC,i,0.68,·,·,·,·,95.8
Cc1ccc(NC(=O)C(C)N2CCCC2)cc1Cl (configuration not stated),i,0.89,19.1,91.0,·,-6.6,101.2
Cc1onc(-c2ccccc2)c1C(=O)N/N=C/c1cccc(O)c1,i,0.88,30.0,121.0,-0.5,-2.3,105.2
COc1ccc(-c2onc(C)c2-c2ccccc2)c(O)c1,i,0.997,0.0,87.7,-0.6,2.9,94.5
COc1ccc(C(CNC(=O)Cc2c(F)cccc2Cl)N2CCCCC2)cc1 (configuration not stated),i,0.68,-14.3,94.7,·,-6.5,102.7
COc1ccc2[nH]c3ccc(OC)cc3c2c1,i,0.86,·,·,-0.1,-13.1,87.6
CCOC(=O)COc1cccc2c(=O)n(CC(=O)N3CCCc4ccccc43)ccc12,i,0.9,·,·,-2.4,-8.8,107.2
O=C(COC(=O)c1n[nH]c2ccccc12)c1cc(F)ccc1F,i,0.93,-17.1,206.2,·,-5.9,106.0
N#CC(c1nc2ccccc2nc1N1CCCC1)S(=O)(=O)c1ccccc1 (configuration not stated),?,·,·,·,-1.7,-11.6,95.5
Cc1ccc(-c2ccc(/C=N/NC(=S)Nc3ccccc3)o2)cc1[N+](=O)[O-],i,0.83,-35.7,135.1,-3.6,1.8,106.3
COc1cc(C(=O)NCCCn2ccnc2)cc(OC)c1OC,i,0.93,·,·,·,-5.7,110.5
Cc1noc(C)c1-c1nc(CSc2ccc(Cl)cc2)no1,i,0.94,·,·,·,·,102.2
COc1ccc(C(=O)/C=C/Nc2cc(C)on2)cc1,i,1,5.1,98.2,-2.0,1.2,94.7
CCCCCn1c(=O)[nH]c2cc(C(=O)N3CCN(CC)CC3)ccc2c1=O,i,1.02,0.0,90.9,-1.5,-5.0,101.1
Cc1cc(Oc2ccccc2)nc(N)n1,i,0.97,-123.8,94.6,-1.0,-6.8,97.8
COc1cccc(C(=O)COC(=O)c2ccc(NC(=O)c3ccccc3)cc2)c1,i,1.02,18.5,112.8,-1.1,-7.1,·
CN1CCN(C(c2cccc(C(F)(F)F)c2)c2nnnn2C(C)(C)C)CC1 (configuration not stated),i,0.99,-35.0,70.1,0.9,-5.0,110.9
C=CCN1C(=O)S/C(=C\c2ccc(N3CCOCC3)cc2C)C1=O,i,0.94,10.7,86.6,-2.4,-7.5,102.9
CCN1CCN(CCNC(=O)c2ccc3c(c2)N(Cc2ccc(F)cc2)C(=O)/C(=C/c2ccccc2)S3)CC1,i,0.64,0.0,129.4,·,4.1,101.8
CCOC(=O)c1cc(C#N)c(Oc2ccccc2)nc1-c1ccccc1,i,0.9,6.2,57.8,-1.1,0.4,108.9

(more compounds)
structure,HSV replic up,HSV replic up primary fold,INS promoter inh,INS promoter inh cell count,GALR2 ag,PKD1 kinase inh,RGS16-Gao HTS
Cc1ccc(-n2cc(CN(C)Cc3nccn3C)c(-c3cccc(C)c3)n2)cc1,i,0.94,·,·,·,-5.3,100.0
Cn1c(Cn2c(=O)sc3ccccc32)nnc1SCC(=O)Nc1ccccc1F,i,1.09,·,·,-0.1,-8.8,115.4
O=C(c1ccccc1F)N1CCN(c2ncccn2)CC1,i,0.99,-10.8,102.1,-0.9,14.4,105.6
Fc1ccc2[nH]c3c(N4CCc5ccccc5C4)ncnc3c2c1,i,0.84,·,·,·,·,106.6
CCCOc1ccc(Cn2c(=O)oc3ccc(C)cc32)cc1OC,i,0.83,27.8,131.3,-0.3,-3.5,100.0
Cn1c(=O)c2c(nc(CN3CCc4ccccc4C3)n2Cc2ccccc2F)n(C)c1=O,i,0.95,-37.0,127.0,-1.2,-14.9,101.7
COc1ccc(CCNC(=O)CSCC(=O)Nc2ccccc2)cc1OC,i,0.97,·,·,·,·,100.3
OCCC1CN(Cc2cnc(-c3cccc4ccccc34)nc2)CCN1C1CCCCC1 (configuration not stated),i,0.89,·,·,·,-2.8,103.2
Cc1ccccc1-n1nnnc1SCc1ncc(-c2ccccc2)o1,·,·,28.6,112.2,-3.1,8.3,103.0
CC1C=CCC2C(=O)N(c3ccc(Cl)cc3O)C(=O)C12 (configuration not stated),i,0.96,7.7,47.8,-2.9,10.3,109.9
C=CCn1c(Cc2csc(N)n2)nnc1SCC(=O)Nc1ccccc1C(F)(F)F,i,0.95,-20.0,148.7,-0.9,-1.2,97.8
COc1cc2[nH]c(=O)n(Cc3ccc(C(=O)NCC4CCCO4)cc3)c(=O)c2cc1OC (configuration not stated),·,·,·,·,-1.6,-9.1,93.5

Not a retest: entries from further up.
structure,HSV replic up,HSV replic up primary fold,INS promoter inh,INS promoter inh cell count,GALR2 ag,PKD1 kinase inh,RGS16-Gao HTS
C=CCn1c(Cc2csc(N)n2)nnc1SCC(=O)Nc1ccccc1C(F)(F)F,i,0.95,-20.0,148.7,-0.9,-1.2,97.8
COc1cc2[nH]c(=O)n(Cc3ccc(C(=O)NCC4CCCO4)cc3)c(=O)c2cc1OC (configuration not stated),·,·,·,·,-1.6,-9.1,93.5

The list continues.
structure,HSV replic up,HSV replic up primary fold,INS promoter inh,INS promoter inh cell count,GALR2 ag,PKD1 kinase inh,RGS16-Gao HTS
Cc1ccccc1NC(=S)NCc1ccco1,i,0.94,13.3,92.2,-1.1,-4.6,101.2
O=C(Nc1ccccc1)N(CCCN1CCOCC1)Cc1cccs1,i,1.06,·,·,-1.7,-2.8,97.4
Cc1ccccc1-c1nnc(SCC#N)o1,i,1.08,·,·,·,-3.5,107.8
COC(=O)c1ccccc1NC(=O)c1cc2nc(C3CC3)cc(C(F)(F)F)n2n1,i,0.58,·,·,-0.8,-1.9,92.1
O=C(c1ccccc1)c1ccc(N2CCCC2)cc1,i,1.02,·,·,0.3,-4.9,101.4
CN1C(=O)c2cccc3c(Cl)ccc(c23)C1=O,i,1.04,25.8,50.0,0.6,-4.4,108.7
C/C(=N\NC(N)=O)c1ccccc1Cl,i,0.8,·,·,·,·,102.1
Oc1ccc(Oc2ncc(Cl)cc2Cl)cc1,i,1.01,0.0,115.0,0.0,-14.5,101.5
Cc1cccc(C)c1N(CC(=O)N1CCN(C)CC1)S(C)(=O)=O,i,1.05,-46.7,87.3,-1.8,1.1,124.9
Cc1ccc(-c2cc([C@H]3[C@@H]4C=CCC[C@@]4(C)C(=O)N3Cc3ccccc3)ccc2F)cc1,i,0.71,·,·,·,·,98.1
Cn1c(SCC(=O)NC(C)(C)C)nc(O)cc1=O,i,0.89,·,·,-3.1,1.8,138.3
COc1ccc(C2C=C(c3ccccc3)Nc3ncnn32)cc1 (configuration not stated),i,1.04,10.5,200.0,-0.4,-2.1,112.4
O=C(CSCc1ccc(Cl)cc1Cl)Nc1c[nH]c(=O)[nH]c1=O,i,1.08,·,·,-1.0,4.3,109.7
CCOc1ccc(NC(=O)c2ccc(S(=O)(=O)N(C)C)cc2)cc1,i,0.8,-171.4,127.2,0.1,5.7,101.0
